Arbovirus inh – blocks arbovirus infection; arbovirus infection cell-based antiviral screen; inhibition, % at 10 µM; 200,000 compounds, 0.37% hits; AID 1251;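 active = inhibition from about 30%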;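 also: bluetongue infection of BSR cells; cell survival read as ATP light after 72 h; 0% = infected wells without compound and 100% = uninfected wells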
YopH inh – blocks Yersinia enterocolitica YopH tyrosine phosphatase | inhibition, %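 (about 10 µM by stock and volumes)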 | 140,000 compounds, 0.16% hits | fluorescence Ex485/Em525;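 active = inhibition of 50% or more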;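 also: controls were vehicle for no effect and minimum signal wells for full effect; inactives centre near -20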
Mtb H37Rv – M. tuberculosis H37Rv growth inhibitors, H37Rv strain (AID 1626); 220,000 compounds, 0.95% hits; M. tuberculosis H37Rv growth inhibition; higher % means a stronger effect; inhibition, % at 10 µM; hits with a dose series show IC50 in µM;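 active = confirmed in a dose series; inconclusive = inhibition above 80% but not taken into the dose series; inactive = below 80% or under 30% at every dose of the series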;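 also: bacteria incubated seven days before Alamar blue readout; 0% = bacteria only wells and 100% = bacteria with antibiotic wells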
Mtb bLac sens – beta-lactam sensitization of Mtb H37Rv. 330,000 compounds, 0.27% hits. M. tuberculosis H37Rv growth with meropenem, percent inhibition; hits of this screen are not shown here. inhibition, % at 25 µM;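 active = about 74% or more and at least 40 points above the plate without the antibiotic, then above 30% in a dose series; inconclusive = first-round hits that could not be retested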;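 also: growth measured after seven days incubation then overnight dye step; 0% = bacteria only wells and 100% = bacteria with antibiotic; twin plates without the antibiotic show which effects depend on it; some results filed as inactive read as strong as hits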
RecA intein inh – inhibitors of M. tuberculosis RecA intein splicing; 290,000 compounds, 0.75% hits; P9WHJ3; cell-free RecA intein splicing, fluorescence; inhibition, %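 (about 9 µM by stock and volumes)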; in the data active = inhibition above about 30%; inconclusive = no clear call, values can overlap the other calls;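 also: 0% = vehicle wells and 100% = reference inhibitor control wells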
Target sequence (P9WHJ3 whole entry, looked up): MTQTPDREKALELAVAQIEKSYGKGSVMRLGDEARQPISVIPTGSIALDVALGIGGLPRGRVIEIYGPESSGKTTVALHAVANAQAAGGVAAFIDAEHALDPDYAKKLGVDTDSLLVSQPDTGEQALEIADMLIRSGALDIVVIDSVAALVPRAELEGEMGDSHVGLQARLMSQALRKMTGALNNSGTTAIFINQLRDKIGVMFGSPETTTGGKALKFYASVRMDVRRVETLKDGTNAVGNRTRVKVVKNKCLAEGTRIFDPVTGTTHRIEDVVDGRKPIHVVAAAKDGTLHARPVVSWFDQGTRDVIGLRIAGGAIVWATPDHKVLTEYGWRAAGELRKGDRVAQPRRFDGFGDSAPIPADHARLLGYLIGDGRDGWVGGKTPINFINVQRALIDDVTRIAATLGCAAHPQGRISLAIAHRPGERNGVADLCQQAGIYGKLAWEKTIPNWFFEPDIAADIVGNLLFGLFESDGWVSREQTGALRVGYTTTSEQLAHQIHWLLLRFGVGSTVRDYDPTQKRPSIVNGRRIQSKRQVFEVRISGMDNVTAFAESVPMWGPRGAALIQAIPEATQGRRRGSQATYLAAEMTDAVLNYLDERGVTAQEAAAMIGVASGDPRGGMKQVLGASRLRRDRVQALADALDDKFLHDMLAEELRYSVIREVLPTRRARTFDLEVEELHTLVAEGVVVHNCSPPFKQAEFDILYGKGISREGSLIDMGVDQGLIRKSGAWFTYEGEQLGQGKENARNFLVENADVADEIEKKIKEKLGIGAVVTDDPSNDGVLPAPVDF
Arbovirus inh repeat – also measured in Arbovirus inh; calls as there; inhibition, %; measured here: 10K subset replicate screen; many hits read low in the repeat;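 first of two repeat runs on a subset; 0% = infected and 100% = uninfected wells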
* marks the source's active call; other numbers are inactive results; ? = inconclusive; · = no result given.

SMILES	Arbovirus inh	YopH inh	Mtb H37Rv	Mtb bLac sens	RecA intein inh	others
CC(=O)OCC1=C(C(=O)O)N2C(=O)C(NC(=O)c3ccc(COc4cccc(Cl)c4Cl)o3)C2SC1 (stereo not drawn)	-15.4	·	-7.9%	-3.0	15.6
CCCCS/C(=C(/C#N)C(N)=O)c1cc2c([nH]1)CCCC2	8.0	-29.9	-14.2%	0.8	35.7*
Cc1nn(-c2ccccc2)c(N2CCCC2)c1/C=N/NC(=O)c1cc2ccccc2cc1O	5.3	2.7	3.7%	-3.9	-25.9
O=C(Nc1ccc(C(=O)N2CCCCC2)cc1)c1ccc([N+](=O)[O-])cc1	·	·	·	-11.6	-1.0
CC(C)C[C@H](NC(=O)NCc1ccc(F)cc1)C(=O)O	·	·	-17.0%	2.1	0.6
O=C(Nc1cc(Cl)cc(Cl)c1)c1coc(=O)c(Br)c1	·	·	8.2%	6.0	0.3
Cc1ccc(-n2ncc3c(=O)n(CC(=O)OCc4ccccc4)cnc32)cc1	-1.6	-48.3	-4.7%	0.6	0.5
CCCCCCN1C(=O)C(O)=C(C(C)=O)C1c1ccccc1[N+](=O)[O-] (stereo not drawn)	7.0	·	-4.2%	·	·
CN1CCN(C(=O)C2(NC(=O)NCc3ccccc3)CCCCC2)CC1	-4.0	-9.7	-13.9%	-7.6	-0.8
CCOC1(c2ccccc2)OC(=O)c2ccccc21 (stereo not drawn)	-3.1	-25.7	-6.3%	3.8	-0.8
Brc1ccc(CNCc2cccs2)cc1	-1.4	-10.4	0.8%	2.6	9.1
CS(=O)(=O)c1cccc(-c2nnc(NC(=O)CCS(=O)(=O)c3ccccc3)o2)c1	·	·	·	-4.4	2.7
O=C(O)c1ccc(N/N=C/C=C/c2ccc([N+](=O)[O-])o2)cc1	·	·	·	100.0	5.5
NC(=S)N/N=C/c1coc2ccc(F)cc2c1=O	·	·	-3.9%	12.9	-3.7
COc1ccccc1CC(=O)Nc1ccccc1C(=O)O	3.7	-57.3	-3.9%	2.8	-2.5
OCCOCCNc1ncnc2c1c(-c1ccccc1)cn2-c1ccccc1	·	·	·	5.6	-0.8
COC(=O)CSc1nc2sc3c(c2c(=O)n1-c1ccccc1)CCN(C)C3	0.9	-35.5	0.1%	2.9	13.0
CCN(CC(=O)Nc1c(F)cccc1F)C(=O)CSCC(=O)Nc1cc(C)on1	·	·	·	-6.6	-1.8
COc1ccc(C(=O)OCC(=O)NCc2ccccc2)c(OC)c1OC	12.1	·	9.4%	4.5	-14.9
CCC(C(=O)O)n1c2ccccc2c2cn[nH]c(=O)c21 (stereo not drawn)	·	·	·	8.2	-1.7
NCCC(=O)N1c2ccccc2Sc2ccc(Cl)cc21	·	·	·	10.8	1.6
Cc1cccc(C)c1NC(=O)COC(=O)CCC(=O)c1cccs1	16.6	·	-3.1%	5.1	·
COc1ccc(OC)c(S(=O)(=O)NCc2ccccc2)c1	9.3	-41.6	1.5%	-9.4	3.5
CCSC1(SCC)N=C(N)C2(C#N)C(c3ccccc3)NC3=C(CCC3)C12C#N (stereo not drawn)	-3.7	-29.4	-2.6%	-7.6	-3.6
COn1c(=O)c(-c2cccs2)[n+]([O-])c2ccccc21	0.5	-5.9	-1.1%	-3.4	-22.3
CC(C)CCn1c(SCc2ccc(Cl)cc2)nc2c1c(=O)[nH]c(=O)n2C	-11.8	-18.9	9.9%	-3.1	1.3
O=C1c2cc(F)ccc2-n2c1nc1ccccc1c2=O	·	·	·	?	94.3*
CCc1ccc(NC(=O)Nc2cnccn2)cc1	·	·	·	-12.6	-1.5
O=C(Nc1c(C(=O)O)oc2ccc(Br)cc12)c1ccccc1	3.6	·	11.6%	6.3	-0.6	Arbovirus inh repeat=10.4
COC(=O)C1=Nc2ccccc2/C1=C\c1c(O)n(-c2cc(OC)ccc2OC)c(=O)[nH]c1=O	6.8	-24.6	-1.3%	-2.4	-10.2
CCOc1ncccc1C(=O)Nc1ccccc1C(=O)NCc1ccc2c(c1)OCO2	-1.4	·	-0.1%	2.0	0.8
CN(CC(=O)Nc1ccccc1Br)C(=O)COc1cccc2c1OC(C)(C)C2	·	·	·	-4.4	-2.7
CCOC(=O)C(C)n1cnc2scc(-c3ccc(C)cc3)c2c1=O (stereo not drawn)	·	·	·	-1.8	2.8
COc1cc(/C=N/NC(=O)Cn2nnc3ccccc32)ccc1O	18.8	·	-4.8%	-2.6	-2.7
CC(=O)N1CCN(c2ccc([N+](=O)[O-])cc2C=C2C(=O)NC(=O)NC2=O)CC1	1.1	-20.4	7.4%	0.2	-3.2
Nc1ccc2nc3c(=O)n(CCc4ccccc4)c(=O)[nH]c3nc2c1	·	·	-3.2%	-5.4	-189.1

Structures listed so far that have fluorine (4):
SMILES	Arbovirus inh	YopH inh	Mtb H37Rv	Mtb bLac sens	RecA intein inh	others
CC(C)C[C@H](NC(=O)NCc1ccc(F)cc1)C(=O)O	·	·	-17.0%	2.1	0.6
NC(=S)N/N=C/c1coc2ccc(F)cc2c1=O	·	·	-3.9%	12.9	-3.7
CCN(CC(=O)Nc1c(F)cccc1F)C(=O)CSCC(=O)Nc1cc(C)on1	·	·	·	-6.6	-1.8
O=C1c2cc(F)ccc2-n2c1nc1ccccc1c2=O	·	·	·	?	94.3*

More structures follow.
SMILES	Arbovirus inh	YopH inh	Mtb H37Rv	Mtb bLac sens	RecA intein inh	others
Cc1cccc(C)c1NC(=O)c1cc(-c2ccccn2)nc2ccccc12	-7.5	·	-0.6%	-4.9	3.3
CCN1CCN(C(CNC(=O)c2ccc3c(c2)OCO3)c2cccnc2)CC1 (stereo not drawn)	0.0	-26.0	5.9%	-3.5	1.9	Arbovirus inh repeat=-2.5
O=C(N=C1SC2CS(=O)(=O)CC2N1c1ccc(Br)cc1)C1CCCO1 (stereo not drawn)	·	·	·	-3.1	-1.5
CCOC(=O)c1sc(NC(=O)C2CC2)cc1C	-12.9	-1.1	-3.8%	-2.2	1.6	Arbovirus inh repeat=-8.1
CCOc1ccc(/C=N/NC(=O)c2[nH]c3ccc(C)cc3c2C)cc1	·	·	·	3.9	-8.2
O=C(NCCCn1ccnc1)/C(=C\c1cccnc1)NC(=O)c1ccco1	3.5	·	-5.8%	0.1	2.5
O=C(NN=C1CCCC1)c1cc(Cl)cc(Cl)c1O	·	·	·	7.8	9.5
CCCNc1nc2ccccc2c(=O)[nH]1	3.4	·	4.2%	-10.0	-0.5
CC1CCc2sc(C(=O)NCc3ccc(F)cc3)cc2C1 (stereo not drawn)	8.3	-2.3	-5.2%	-7.0	10.0
CCOC(=O)N1CCN(C(=O)c2ccccc2NC(C)=O)CC1	-4.2	·	-7.0%	-4.8	-1.6
CCCN(CCC)S(=O)(=O)c1ccc(C(=O)Nc2nc(-c3ccccc3)c(C(=O)OCC)s2)cc1	0.6	-28.5	-6.6%	8.3	18.0
COC(=O)c1ccc(NC(=O)C2CCN(C(=O)c3cc(OC)c(OC)c(OC)c3)CC2)cc1	12.0	-20.7	12.2%	3.1	·
Cc1ccc(CNC(=O)c2ccccc2NC(=O)C2=CSCCO2)cc1	·	·	·	-4.7	0.4
CCCN1C(=O)/C(=C/c2ccc(N3CCCC3)c(C)c2)NC1=S	-9.9	-32.2	-6.5%	78.1	-42.8
Cc1ccc(C2c3c(C)nn(-c4ccc([N+](=O)[O-])cc4)c3N=C3C(=O)Nc4ccccc4N32)cc1 (stereo not drawn)	-3.4	·	?	87.5	-3.0
COc1cccc(C(=O)Nc2ccc(F)cc2F)c1	-2.4	9.7	-1.2%	1.0	0.5
Cc1cccc(NC(=S)NNc2cccc(Cl)c2)c1	·	·	·	-7.5	1.5
COc1ccccc1N1CCN(Cc2ccc(Br)s2)CC1	8.1	-25.4	-8.0%	6.4	1.8
CCc1ccc(-n2c(SCC(=O)Nc3ccc(C(=O)O)cc3)nnc2-c2ccncc2)cc1	·	·	-3.7%	0.8	1.2
Cc1c(C)c2c(OCC(=O)NCc3cccnc3)cc3c(c2oc1=O)CCC(C)(C)O3	·	·	·	-1.2	-2.9
Cc1ccccc1NC(=O)NC(N)=O	-0.3	·	1.8%	0.5	-0.7
O=S(=O)(c1ccc(Br)cc1)c1cnc2ccccc2n1	6.3	·	·	97.1	8.7
Cc1ccc(C(=O)O)cc1N1CCCC1=O	12.3	·	-1.8%	2.3	0.1
CCC(O)CNc1nc(SC)nc2sc3c(c12)CCN(C)C3 (stereo not drawn)	8.3	-1.8	7.3%	-12.4	-14.7	Arbovirus inh repeat=15.0
COc1ccc(Cl)cc1N1C(=O)/C(=C\c2sccc2C)N=C1SCC(=O)NC1CC1	-9.0	-19.2	2.5%	5.5	9.9
Cc1nnc(SCC(=O)N2CC(=O)Nc3ccccc32)n1-c1ccccc1	-4.2	-30.7	-5.2%	-4.6	0.4
CN(C(=O)COC(=O)c1cccc(NS(=O)(=O)c2ccc(F)c(F)c2)c1)C1CCS(=O)(=O)C1 (stereo not drawn)	3.2	·	-1.3%	-3.5	0.1
NC(=O)c1ccccc1NC(=O)N1CCOCC1	·	·	·	-2.3	-4.0
COC(=O)c1cccc(CSC(=S)N2CCCC2)c1	·	·	·	-3.3	7.7
Cc1ccc(SCC(=O)N/N=C/c2ccco2)cc1	·	·	·	-2.4	-0.2
CN(Cc1ccccc1)C(=O)C1CCN(S(C)(=O)=O)CC1	7.9	·	-2.4%	-3.6	2.4
COC(=O)[C@@H]1C[C@@]2(O)[C@@H](O)[C@@H](O)[C@@H](O)C[C@H]2N1CC1CCCCC1	·	·	-9.8%	-8.6	0.0
COc1cc(CN2CCC(Oc3cc(C(=O)NC4CC4)ccc3OC)CC2)cc(OC)c1	·	·	·	-2.4	-6.4
Cc1ccc(N/N=C/c2c(C)c(C#N)c(=O)n(C)c2O)cc1C	-26.4	·	19.3%	·	-11.2
CCOc1ccccc1N(CC(=O)Nc1ccccc1C(=O)N1CCOCC1)S(C)(=O)=O	·	·	·	-2.1	-1.0
CCN1CCN(c2cc(C)c3cc(NC(=O)CCC(=O)Nc4ccc(OC)c(OC)c4)ccc3n2)CC1	·	·	·	5.0	-2.6

In the list so far, these contain a Cl atom.
SMILES	Arbovirus inh	YopH inh	Mtb H37Rv	Mtb bLac sens	RecA intein inh	others
CC(=O)OCC1=C(C(=O)O)N2C(=O)C(NC(=O)c3ccc(COc4cccc(Cl)c4Cl)o3)C2SC1 (stereo not drawn)	-15.4	·	-7.9%	-3.0	15.6
O=C(Nc1cc(Cl)cc(Cl)c1)c1coc(=O)c(Br)c1	·	·	8.2%	6.0	0.3
NCCC(=O)N1c2ccccc2Sc2ccc(Cl)cc21	·	·	·	10.8	1.6
CC(C)CCn1c(SCc2ccc(Cl)cc2)nc2c1c(=O)[nH]c(=O)n2C	-11.8	-18.9	9.9%	-3.1	1.3
O=C(NN=C1CCCC1)c1cc(Cl)cc(Cl)c1O	·	·	·	7.8	9.5
Cc1cccc(NC(=S)NNc2cccc(Cl)c2)c1	·	·	·	-7.5	1.5
COc1ccc(Cl)cc1N1C(=O)/C(=C\c2sccc2C)N=C1SCC(=O)NC1CC1	-9.0	-19.2	2.5%	5.5	9.9

Next part.
SMILES	Arbovirus inh	YopH inh	Mtb H37Rv	Mtb bLac sens	RecA intein inh	others
C=CCn1nc2ccccc2c1OCCO	·	·	·	-4.9	-7.5
CO/C=C\C=C/c1nnn(-c2ccc(Cl)cc2)n1	-6.0	-10.9	24.3%	88.2	·
CCOC(=O)c1cc(-c2cccnc2)nn1-c1ccccn1	5.8	-32.6	4.7%	5.8	8.3
O=C(CCN1CCOCC1)Nc1cccc(Br)c1	5.5	-23.4	1.6%	9.2	-2.4
COc1ccccc1-c1cc(C(=O)N2CCCCC2)no1	-2.4	-50.5	-1.6%	3.3	0.5	Arbovirus inh repeat=-10.3
Cc1[nH]c2ccc(F)cc2c1CCN(Cc1cccnc1)C(=S)Nc1cccc(F)c1	15.0	·	11.6%	39.6	17.9

As a working copy, 2 of the compounds above.
SMILES	Arbovirus inh	YopH inh	Mtb H37Rv	Mtb bLac sens	RecA intein inh	others
C=CCn1nc2ccccc2c1OCCO	·	·	·	-4.9	-7.5
CO/C=C\C=C/c1nnn(-c2ccc(Cl)cc2)n1	-6.0	-10.9	24.3%	88.2	·

Bioassay records as filed in PubChem BioAssay.

Not all compounds are listed; count on the stated rates, not on these rows.
